Source: PubChem (Vanderbilt University)
GIRK2 activ: GIRK2 channel activation. AID 1259325. calls only for hits at 25 µM. 0.05% of 63,000 active. HEK293-GIRK2 thallium flux, Thallos fluorescence. P48051;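 active = among the strongest 0.2% of first-round signals and kept after retests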;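 also: first round at about 10 µM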
Target sequence (P48051 whole entry, looked up): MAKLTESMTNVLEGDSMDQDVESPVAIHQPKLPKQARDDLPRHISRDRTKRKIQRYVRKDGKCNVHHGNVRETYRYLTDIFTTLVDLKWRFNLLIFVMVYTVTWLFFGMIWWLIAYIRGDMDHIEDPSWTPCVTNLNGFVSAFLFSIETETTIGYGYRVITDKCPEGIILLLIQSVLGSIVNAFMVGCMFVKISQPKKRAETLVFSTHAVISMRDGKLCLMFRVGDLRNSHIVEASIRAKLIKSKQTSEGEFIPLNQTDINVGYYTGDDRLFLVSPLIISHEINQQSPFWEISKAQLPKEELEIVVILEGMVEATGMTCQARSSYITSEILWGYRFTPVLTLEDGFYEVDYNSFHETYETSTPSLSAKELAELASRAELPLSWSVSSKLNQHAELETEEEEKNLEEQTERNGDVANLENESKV
Calls only; i = inactive. Not all compounds are listed, so the mix of outcomes need not match the whole.

molecule | GIRK2 activ
COc1cccc(C(=O)Nc2nnc(-c3cc(C)ccc3C)o2)c1 | i
Cc1cc(NC(=O)CN2CC(c3nc(-c4cccs4)no3)C2)no1 | i
CC(C)(C)NC(=O)N1CCC(CNC(=O)C(=O)Nc2cccc(N3CCCC3=O)c2)CC1 | i
CN(c1ccc(NC(=O)Nc2ccc(OC(F)(F)F)cc2)cc1)c1ccnc(Nc2cccc(S(N)(=O)=O)c2)n1 | i
COc1ccc(-c2ccc(S(=O)(=O)Nc3ccc(C(=O)O)cc3)cc2)cc1 | i
Cc1c(NC(=O)c2cc3c(=O)n(C)c(=O)n(C)c3s2)c(=O)n(-c2ccccc2)n1C | i
CCCS(=O)(=O)N1CCc2ccc(NC(=O)c3ccc(=O)n(C)n3)cc2C1 | i
CCc1ccccc1NC(=O)Nc1cnc(N2CCN(C)CC2)nc1 | i
Cc1cc(C)nc(NC(=O)c2ccc(S(=O)(=O)N3CCCC3)cc2)n1 | i
Cn1nc(C2CCN(C(=O)/C=C/c3cccs3)CC2)n(-c2ccccc2)c1=O | i
CCOc1cccc(CNc2c(C(=O)OC)c(=O)[nH]c3c(Cl)cccc23)c1 | i
COc1cc2[nH]c3c(=O)n(CC(=O)NCc4ccc(C(F)(F)F)cc4)cnc3c2cc1OC | i
CC(=O)NC1C(O/N=C2\C(=O)N(Cc3ccccc3)c3ccc(C)cc32)OC(CO)C(O)C1O (centres undefined) | i
COc1ccc(-c2noc(-c3sccc3S(=O)(=O)N(C)c3ccc(C)c(F)c3)n2)c(OC)c1 | i
COc1ccccc1CNC(=O)c1cn(-c2cccc(F)c2)nn1 | i
Cc1ccc(C(C)C)c(OCC(O)Cn2c(N3CCCC(C)C3)nc3c2c(=O)n(C)c(=O)n3C)c1 (centres undefined) | i
CN(CCO)CC1COCCN1C(=O)c1cccc(C#N)c1 (centres undefined) | i
CSc1c(C(C)C)cnc2c1c(=O)n(C)c(=O)n2C | i
Cc1c(C(=O)N2CC(c3nc4ccccc4[nH]3)C2)cnn1-c1ccccc1 | i
COc1ccc2nc(N(CCCn3ccnc3)C(=O)c3ccc4c(c3)OCCO4)sc2c1 | i
CC(=O)Nc1nc2c(s1)CN(CC(=O)Nc1ccc3c(c1)OCCO3)CC2 | i
O=C1CCCC(=O)N1CCS(=O)(=O)N1CC(c2nc3ccccc3[nH]2)C1 | i
CCOc1ccccc1C(=O)Nc1cnoc1 | i
COc1ccc(C)cc1-n1ccnc1SCC(=O)NC(C)(C)C | i
CC(C)(C)c1ccc(C(=O)Nc2ccc(S(C)(=O)=O)cc2)cc1 | i
Cn1nc(C(=O)Nc2ccc(-c3ccn[nH]3)cc2)ccc1=O | i
NC(=O)c1cccc(-c2cccc(OC(=O)NCCCCCCc3ccccc3)c2)c1 | i
CS(=O)(=O)N1CCC(C(=O)Nc2cc(-n3cncn3)ncn2)CC1 | i
Cn1c(=O)[nH]c(=O)c2c1nc(NCc1ccco1)n2Cc1cccc2ccccc12 | i
COc1ccc(/C=C/C(=O)Nc2ccccc2-c2ccc(=O)[nH]n2)cc1 | i
O=C(NCCCn1cccc1)c1nc2ccccc2s1 | i
COc1ccc(CCNC(=O)N2CCC(Oc3ccc(Cl)cn3)CC2)cc1 | i

Reprinted at random: seven compounds from above.
molecule | GIRK2 activ
Cc1cc(NC(=O)CN2CC(c3nc(-c4cccs4)no3)C2)no1 | i
CN(CCO)CC1COCCN1C(=O)c1cccc(C#N)c1 (centres undefined) | i
O=C1CCCC(=O)N1CCS(=O)(=O)N1CC(c2nc3ccccc3[nH]2)C1 | i
CN(c1ccc(NC(=O)Nc2ccc(OC(F)(F)F)cc2)cc1)c1ccnc(Nc2cccc(S(N)(=O)=O)c2)n1 | i
O=C(NCCCn1cccc1)c1nc2ccccc2s1 | i
CSc1c(C(C)C)cnc2c1c(=O)n(C)c(=O)n2C | i
NC(=O)c1cccc(-c2cccc(OC(=O)NCCCCCCc3ccccc3)c2)c1 | i

Entries shown so far containing fluorine, in the order listed:
molecule | GIRK2 activ
CN(c1ccc(NC(=O)Nc2ccc(OC(F)(F)F)cc2)cc1)c1ccnc(Nc2cccc(S(N)(=O)=O)c2)n1 | i
COc1cc2[nH]c3c(=O)n(CC(=O)NCc4ccc(C(F)(F)F)cc4)cnc3c2cc1OC | i
COc1ccc(-c2noc(-c3sccc3S(=O)(=O)N(C)c3ccc(C)c(F)c3)n2)c(OC)c1 | i
COc1ccccc1CNC(=O)c1cn(-c2cccc(F)c2)nn1 | i

(listing goes on)
molecule | GIRK2 activ
Cc1cc(C(=O)N=c2sc3cc4c(cc3n2C)OCO4)on1 | i
CN(C)c1ncc(NS(=O)(=O)Cc2ccccc2)cn1 | i
COc1ccc2nc(N3CCCC(C(=O)Nc4cccnc4)C3)sc2c1 (centres undefined) | i
CCOc1ccc(OCC)c(N2C=C(C#N)S(=O)(=O)c3ccc(F)cc32)c1 | i
CN(C)c1cccc(C(=O)N(Cc2ccsc2)C2CC2)c1 | i
O=C(CSc1nc(-c2ccco2)cc(C(F)(F)F)n1)c1ccc2c(c1)OCO2 | i
O=C(COc1ccc(Cl)cc1Cl)Nc1ccc(-n2nnc(C(=O)NC3CC3)n2)cc1 | i
C=CCN1CC(c2nc3ccccc3n2Cc2ccc(Cl)c(Cl)c2)CC1=O (centres undefined) | i
COc1cccc(N2CC(C(=O)NCC(C)(O)CCc3ccccc3)CC2=O)c1 (centres undefined) | i
Cc1ccccc1-c1ccc(N2CCN(C(=O)Nc3ccccc3Cl)CC2)nn1 | i
COCC(=O)N(Cc1ccsc1)CC(F)(F)F | i
COc1ccc(S(=O)(=O)N2CCCCC2CC(=O)NCc2ccc(F)cc2)cc1 (centres undefined) | i
Cc1ccc(Cn2c(SCC(=O)NCCC(C)C)nc3c(sc4ncccc43)c2=O)cc1 | i
COc1ccc(NC(=O)CN2CCc3[nH]c4ccccc4c(=O)c3C2)cc1Cl | i
Nc1nccc(-c2c(-c3ccc(F)cc3)nn3cc(C(F)(F)F)ccc23)n1 | i
COc1ccc2c(=O)c3c(=O)n(Cc4ccccc4)c(-c4ccccc4)nc3oc2c1 | i
CCc1ccc(C(=O)N(Cc2ccoc2)Cc2cccs2)cc1 | i
Cc1ccc(-n2cc(C(=O)NCc3ccc4c(c3)OCO4)nn2)cc1 | i
COc1ccc(OC)c(COCC(O)CN2CCN(C)CC2)c1 (centres undefined) | i
COCC(=O)N1CCCc2ccc(NC(=O)c3cc(-c4ccco4)on3)cc21 | i
CC(C)C(=O)N1N=C(c2cccs2)CC1c1cccs1 (centres undefined) | i
O=C(CSc1nnc(CCc2nc3ccccc3s2)o1)NCc1cccs1 | i
O=C(Cc1cccc2ccccc12)NCC1(c2ccc(F)cc2)CC1 | i
O=C(C1CCCC1)N1CCN(Cc2nc3ccccc3[nH]2)CC1 | i

More entries.
SMILES | GIRK2 activ
Cc1nnc(C2CCCN(C(=O)c3ccccc3C(F)(F)F)C2)s1 (centres undefined) | i
O=C(Nc1cc(C2CC2)nn1-c1nc2c(c(=O)[nH]1)CCCC2)c1cccc([N+](=O)[O-])c1 | i
CCCc1nnsc1C(=O)Nc1nc(-c2cc3ccccc3oc2=O)cs1 | i
Cc1ccc(S(=O)(=O)N2CCN(c3cc(Nc4ccccn4)nc(C)n3)CC2)c(C)c1 | i
Cn1cc(OCc2ccc(F)cc2)c(=O)cc1C(=O)N1CCN(Cc2ccccc2)CC1 | i
O=C(/C=C\c1ccc([N+](=O)[O-])cc1)N1CCN(c2ncnc3c2nnn3-c2ccc(F)cc2)CC1 | i
CCOc1ccc(NC(=O)Nc2nccn(-c3cccc(Cl)c3)c2=O)cc1 | i
COC(=O)c1cc(Nc2cccc(OC)c2)c2cc(Cl)ccc2n1 | i
Cc1noc(CNC(=O)c2coc(NC(=O)C3CC3)n2)n1 | i
CCOC(=O)C1=C(C)N=C2SCCC(=O)N2C1c1cccc([N+](=O)[O-])c1 (centres undefined) | i
O=C(CN1CCN(CC(O)C2CC2)CC1)Nc1cccnc1 (centres undefined) | i
O=C(Cc1ccc(F)cc1)NCC#CCOc1ccc2c(c1)OCO2 | i
O=C(CN1CCC(Cn2c(C(F)(F)F)nc3ccccc32)CC1)Nc1ccccn1 | i
COc1ccc(C2NC(=O)NC(C)=C2C(=O)Nc2ccc(Br)cc2)cc1 (centres undefined) | i
CCCCCn1c(=S)[nH]c2cc(C(=O)N(C)Cc3ccccc3)ccc2c1=O | i
CC(C)(C)c1csc(CN2CCN(CC(=O)NCc3ccccc3)CC2)n1 | i
COC(=O)C1c2ccsc2CCN1C(=O)c1cc(=O)c2ccccc2o1 (centres undefined) | i
CN1CCN(Nc2cc(-c3ccccc3)ncn2)CC1 | i
Cc1cc(=O)n(CC(=O)Nc2ccc(F)cc2Cl)c(N2CCOCC2)n1 | i
O=C(NCC(=O)N1CC(c2nc(-c3ccccc3)no2)C1)c1ccccc1 | i
Cc1noc(CNS(=O)(=O)c2ccc(Cl)s2)n1 | i
O=C(c1cccc(-n2cnnn2)c1)N1CCC(Oc2ccc(C(F)(F)F)cn2)CC1 | i
Cc1ccc2nc(C3CN(S(=O)(=O)c4ccc5c(c4)OCCO5)C3)[nH]c2c1 | i
COC(=O)c1ccccc1NC(=O)CSc1ncc(-c2ccc(C)c(C)c2)o1 | i
O=C1c2cc(NS(=O)(=O)Cc3cc(F)cc(F)c3)ccc2OCCC2CCCCN12 (centres undefined) | i
Cc1nnc(SCCn2c(N3CCOCC3)nc3c2c(=O)n(C)c(=O)n3C)s1 | i
Cc1nc(C)c(C(=O)N2CCC(c3nnc(-c4ccco4)o3)CC2)s1 | i
COc1ccc(Br)c(C(=O)N2CC3(COC(C)(C)OC3)C2)c1 | i
COc1ccc(CCNC(=O)c2cccc3c4c([nH]c23)CCCC4)cc1 | i
N#C/C(C(=O)NC1CCCC1)=C1/N=C(NC(=O)c2cccc([N+](=O)[O-])c2)c2ccccc21 | i
COc1cccc(N(C)S(=O)(=O)c2ccsc2-c2nc(-c3cccc(C)c3)no2)c1 | i
COCC1CCCN(C(=O)Nc2cc(OC)c(OC)c(OC)c2)C1 (centres undefined) | i
Cc1ccc(CNC(=O)Cn2nc(-c3cccs3)c3sc(N4CCOCC4)nc3c2=O)cc1 | i
COC(=O)c1sccc1S(=O)(=O)NCCc1nc(C)cc(C(F)(F)F)n1 | i
COCCNc1cc(C)nc2c(-c3ccc(Cl)cc3)c(C)nn12 | i
COc1ccccc1NC(=O)Cn1cc(S(=O)(=O)c2ccc(C)c(C)c2)c(=O)c2ccccc21 | i
CCOc1ccccc1Oc1c(C(F)(F)F)oc2cc(O)ccc2c1=O | i
O=C(Nc1sc2c(c1-c1nc3ccccc3s1)CCCC2)c1ccccc1 | i
COc1ccc(-c2ccc(=O)n(CCNS(=O)(=O)c3ccccc3)n2)cc1 | i
COc1ccccc1-n1ncc2c(C(C)C)nnc(SCC(=O)Nc3cc(C)on3)c21 | i
COc1ccc(S(=O)(=O)Cc2nc(-c3cccc(Br)c3)no2)cc1 | i
CCOC(=O)C(=O)N1CCC(Cn2ccnc2)CC1 | i
COc1ccc(NC(=O)Cn2nc3c4cccc(C)c4ncn3c2=O)cc1OC | i
Cc1c(O)ccc2c(CN3CCC4(CC3)OCCO4)cc(=O)oc12 | i
O=C(NCc1cccnc1)c1cc(-c2ccco2)[nH]n1 | i
Cc1cccc2sc(OC3CCN(C(=O)c4cccc(Cl)c4)CC3)nc12 | i
O=C(NCC1(CO)CC1)Nc1cccc(C(F)(F)F)c1 | i
CSc1cccc(NC(=O)Cn2c(=O)n(CCCCC(=O)NC(C)C)c(=O)c3ccccc32)c1 | i
COc1ccc(S(=O)(=O)NCCn2ccc3ccccc32)cc1 | i
COCCn1c(N2CCN(c3ccccc3)CC2)nc2c1c(=O)n(C)c(=O)n2C | i
CC(C)Oc1ccc(-c2noc(Cn3c(=O)n(Cc4ccco4)c(=O)c4ccccc43)n2)cc1 | i
Cc1ccnc(Nc2nc(CC(=O)N3CCN(S(C)(=O)=O)CC3)cs2)c1 | i
COCCNC(=O)CNS(=O)(=O)c1c(C)c(C)cc(C)c1C | i
O=C(/C=C/c1ccc2c(c1)OCO2)Nc1ccc(CC(=O)NCc2cccs2)cc1 | i
COc1ccc(S(=O)(=O)N2CCCOC2CNC(=O)C(=O)NC2CCCC2)cc1C (centres undefined) | i
O=C(Nc1nc2c(s1)CN(C(=O)c1ccc3nsnc3c1)CC2)c1ccoc1 | i

The listing continues.
SMILES | GIRK2 activ
COc1ccc(Nc2c(C(=O)N3CCOCC3)cnc3nc(C)ccc23)cc1 | i
CC(C)C(=O)Nc1ccc(C(=O)NCCNS(=O)(=O)c2ccc3ccccc3c2)cc1 | i
CCCCOc1ccc(C(=O)Nc2cnc(-n3cccn3)nc2)cc1 | i
O=C(Cn1cnc2c(sc3ccccc32)c1=O)Nc1cccc(F)c1 | i
CCCCC(=O)NCCN1CCN(C(=O)OC)CC1 | i
Cn1c(=O)c2c(nc3n2CC(c2ccccc2)=NN3CC(=O)OCc2ccccc2)n(C)c1=O | i
CC(C)Cn1c(=O)[nH]c2c(C(=O)N(C)Cc3ccccc3)snc2c1=O | i
Cc1ccc2c(Nc3ccc(C(N)=O)cc3)c(C(=O)N3CCSCC3)cnc2n1 | i
CNc1cc(C)nc2c(-c3ccccc3Cl)c(C)nn12 | i
N#C/C(=C/N1CCN(c2cccc(C(F)(F)F)c2)CC1)c1nc2ccccc2s1 | i
O=C(c1ccc2ccccc2n1)N1CCC(Oc2ccc(Cl)cn2)CC1 | i
Cc1cccc(S(=O)(=O)Nc2cccc(N3CCCS3(=O)=O)c2)c1 | i
COc1ccc(CN2CCc3nc(SCc4nc(-c5ccccc5)oc4C)[nH]c(=O)c3C2)cc1 | i
CN1CCN(c2nnc(SCC(=O)NCc3ccc4c(c3)OCO4)s2)CC1 | i
COc1ccc(-n2nnc(C(=O)N3CCN(c4ccccc4F)CC3)n2)cc1 | i
Cc1cccc(Cn2c(=O)c3c(nc4n(CCN5CCOCC5)c(C)c(C)n34)n(C)c2=O)c1 | i
CCCCN1CC(c2nc3ccccc3n2CCCOc2ccc(OC)cc2)CC1=O (centres undefined) | i
COc1ccc(C2=NN(S(C)(=O)=O)C(c3cn(-c4ccccc4)nc3-c3cccs3)C2)cc1 (centres undefined) | i
